DT40 TDP1 CPT = growth inhibition of DT40 Tdp1-/-;hTDP1 cells with camptothecin (screen for TDP1 inhibitors); 12% of 420,000 active; chicken DT40 Tdp1-/-;hTDP1 cells + 20 nM CPT, ATP luminescence, 48 h; AID 686979; Potency, µM (top dose mostly 46.2 µM), for the others: top-dose activity change, negative = growth inhibition, usual class: inhibitors; also: nearly all actives have a fitted effect of over 55% in size
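Chicken DT40 Tdp1-/- cells stably complemented with human TDP1 were seeded at 400 cells/well in medium containing 20 nM camptothecin, exposed to pin-transferred compounds, and grown at 37 °C for at least 48 hr. Viability was read as ATP luminescence.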
TDP1 cell noCPT = qHTS for Inhibitors of human tyrosyl-DNA phosphodiesterase 1 (TDP1): qHTS in cells in absence of CPT; DT40 Tdp1-/- hTDP1 cells, no CPT, ATP luminescence, 48 h; Potency, µM (doses to about 46.2 µM), for the others: top-dose activity change, negative = growth inhibition, usual class: inhibitors; 15% of 420,000 active; AID 686978, 2013; also: nearly all actives have a fitted effect of over 55% in size
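Chicken DT40 Tdp1-/- cells stably complemented with human TDP1 were seeded at 400 cells/well with DMSO in place of 20 nM camptothecin. After compound pinning, cells grew at least 48 hr at 37 °C; viability read by CellTiter-Glo luminescence.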
An asterisk follows results filed as active; ? = inconclusive; [ ] = another dose, or the depositor's remark. Calls follow the shape of the dose curve; as a rule, active = well fitted inhibition curve with a large enough effect; inconclusive = small, poorly fitted or top-dose-only effect; inactive = flat fitted curve, though single readings scatter. % is scaled to controls: 0 for no effect and ±100 for the full control effect; potency is read from the fitted curve at half-maximal effect. The list is partial, and most or all hits are left out here.

SMILES	DT40 TDP1 CPT	TDP1 cell noCPT
Cc1ccc(OCC(=O)n2nc(C)cc2C)c(Br)c1	6%	1%
O=C(O)C1CC(=O)N(CCc2ccccc2)C1 (configuration not stated)	-10%	-3%
CN(CCc1ccccn1)C(=O)CC1C(=O)NCCN1Cc1ccc(-c2ccccc2)cc1 (configuration not stated)	2%	-3%
Cc1ccc(S(=O)(=O)NCCNS(=O)(=O)c2ccc(C)cc2)cc1	-5%	-7%
CCCCCn1c(=O)[nH]c2cc(C(=O)NCCN3CCCCC3C)ccc2c1=O (configuration not stated)	10%	?
COc1ccc2[nH]c(C(=O)NCc3ccccc3)c(C)c2c1	17%	-18%
CCCCn1c(=O)c(C(=O)c2ccccc2)nc2ccccc21	-28%	-27%
CC1(C)Cc2c(sc(NC(=O)C(=O)N3CCCC3)c2C(=O)O)CO1	3%	-7%
Cc1noc(C(=O)NCc2ccco2)c1Cl	-1%	-1%
Cc1ccc(S(=O)(=O)CCc2nnc(NC(=O)C3CCCO3)s2)cc1 (configuration not stated)	4%	-2%
COc1ccccc1NC(=O)CSc1nnc(-c2ccco2)o1	-5%	1%
COc1cccc(NC(=O)N2CCCC2C(=O)NCc2ccco2)c1 (configuration not stated)	16%	-8%
CCOC(=O)c1sc(=NC(=O)c2cccc(Br)c2)n(C)c1C	2%	3%
CC(=O)N1CCN(CCN=CC2=C(O)CC(c3ccco3)CC2=O)CC1 (configuration not stated)	1%	-3%
O=C(NCCCN1CCCC1=O)c1cccc(Oc2ccccc2)c1	4%	?
CN(C1CCS(=O)(=O)C1)S(=O)(=O)c1cccc2nsnc12 (configuration not stated)	2%	-4%
Cc1ccc(S(=O)(=O)Oc2ccc3ccc(O)cc3c2)cc1	-28%	-8%
CCOC(=O)N1CCN(S(=O)(=O)c2ccc(C)cc2)C1	0%	-8%
CC(=O)OC1C([N+]2(C)CCCCC2)C[C@H]2C3CC[C@H]4C[C@H](OC(C)=O)C([N+]5(C)CCCCC5)CC4(C)[C@H]3CCC12C (some centres not stated)	-14%	-1%
O=C(CCC(=O)c1cccs1)NCc1ccccc1	-5%	-14%
COc1ccc(NC(=O)N2CCCC2C(=O)NCC2CCCCC2)cc1 (configuration not stated)	-6%	-1%
COc1ccc(NC(=O)/C(=C\c2cccnc2)NC(=O)c2cccs2)cc1	0%	11%
C=CCOc1ccc(/C=C\c2nc(O)c([N+](=O)[O-])c(=O)[nH]2)cc1OC	0%	2%
COc1cccc(/C=N/n2c(=O)[nH]c3ccccc32)c1OC	-23%	-16%
O=C1C2CCCN2C(c2ccc(F)cc2)N1c1cccc(Cl)c1 (configuration not stated)	-14%	-8%
CCOC(=O)c1cnc2c(cnn2C)c1NCc1ccc(OC)cc1	-15%	-41%
CCn1nccc1C(=O)Nc1ccc(C(=O)OC(C)C)cc1	-5%	-23%
CCOC(=O)N1CCN=C1SCc1ccc(Cl)c(Cl)c1	1%	3%
CC1(C)CC(=O)C(C(c2ccncc2)C2C(=O)CC(C)(C)CC2=O)C(=O)C1	-5%	4%
Cn1c(CC(=O)Nc2ccccc2F)nnc1SCC(=O)NC1CCCC1	16%	6%
COC(=O)CC1COc2ccccc2N1C(=O)c1cccc(C(F)(F)F)c1 (configuration not stated)	4%	4%
COc1cccc(C2C(C(=O)c3cc4cccc(OC)c4o3)=C(O)C(=O)N2c2cc(C)on2)c1OC (configuration not stated)	-20%	3%
CCN1CCN(C(=O)C2(NC(=O)Nc3cccc(F)c3)CCCCC2)CC1	7%	-18%
CCCOc1ccc(Cc2nn3c(=O)/c(=C/c4ccco4)sc3nc2=O)cc1	?	-14%
COc1ccc(NC(=O)CN2C(=O)NC3(CCCC3)C2=O)cc1S(=O)(=O)N1CCCCC1	-6%	21%
Cc1cc(C)nc(NC(=O)c2c(-c3ccccc3Cl)noc2C)n1	-6%	3%
COc1ccc2cc(CCNC(=O)CC(C)(C)C)c(=O)[nH]c2c1	-16%	-4%
O=C(NCCc1ccccc1)c1ccccc1SCC(=O)N1CCCC1	1%	11%
Cc1ccc(N2CC(C(=O)NCc3cccnc3)CC2=O)cc1 (configuration not stated)	5%	1%
CC(C)(C)NC(=O)C1CCN(C(=O)c2ccc(-c3ccccc3)cc2)CC1	?	-23%
CCN1CCN(C(=S)c2ccc(OCC(=O)N3CCOCC3)cc2)CC1	12%	-9%
COCc1nc(-c2cc(OC)c(OC)c(OC)c2)no1	-6%	-12%
Cc1ccc(S(=O)(=O)/N=C2/NC(=O)/C(=C/c3ccc(Br)o3)S2)cc1	-15%	-29%
COc1cc(CCC(=O)OCC(=O)Nc2ccccc2C#N)cc(OC)c1OC	-18%	-30%
COc1cccc(OCCc2c(C)n[nH]c2C)c1	-8%	-17%
CCC(=O)c1c[nH]c(C(=O)NCc2cccnc2)c1	12%	5%
ClCC1CN(Cc2ccccc2Cl)CCO1 (configuration not stated)	-1%	7%
Cc1c(C#N)c2ncn(CCCN(C)C)c(=O)c2n1-c1ccccc1	7%	-9%
CC(=O)c1cc(C(c2csc(C(C)=O)c2)c2csc(C(C)=O)c2)cs1	1%	-18%
Cc1cc(-c2onc(C)c2C(N)=O)no1	14%	5%
N#CCCSCc1ccc(C(=O)O)o1	-9%	-7%
CC(C)NC(=O)N1CCC(N2CCN(Cc3ccc(F)cc3)C(=O)C2=O)CC1	-21%	0%
Cc1ccccc1NC(=O)Cc1nc(CSc2nnc(C3CCCCC3)n2N)cs1	-18%	3%
COc1ccc(-c2ccc(C#N)c(OC)n2)cc1	4%	1%
O=C(NC(Nc1ccc(F)cc1)(C(F)(F)F)C(F)(F)F)c1cccnc1	20%	-13%
CC(=O)Nc1cccc(-c2nn[nH]n2)c1	-5%	-5%
O=C1NC(=S)CN1c1ccccc1	?	-26%
O=C(O)CN1C(=O)C2C3C=CC(C3)C2C1=O (configuration not stated)	12%	-7%
Cc1c(C(=O)OCC(=O)N2CCC(C)CC2)oc2ccccc12	-11%	?
CCNC(=S)N1CCN(S(=O)(=O)c2ccc(C)c(C)c2)CC1	-20%	?
(list continues)
SMILES	DT40 TDP1 CPT	TDP1 cell noCPT
COc1cccc(CCNc2ccc(N3C(=O)CC(C)C3=O)cc2[N+](=O)[O-])c1 (configuration not stated)	-15%	?
C=C1C2(C(=O)Nc3nccs3)CCC(C2)C1(C)C (configuration not stated)	-11%	-7%
CCCCNC(=O)N1CCc2[nH]c3ccccc3c2C1	-17%	2%
CC(C)C(=O)OCC(=O)NCc1ccccc1Cl	32%[activator]	-3%
CCc1ccccc1-n1c(SCC(=O)N2CCCC2)nc2[nH]ncc2c1=O	-9%	-9%
Cc1c(C(=O)N2CCCC2)oc2c1-c1nn(CC(=O)NCCCN3CCCCC3C)cc1CC2 (configuration not stated)	-14%	6%
CC(=O)C1=C(O)C(=O)N(Cc2cccnc2)C1c1ccccc1 (configuration not stated)	3%	6%
N#Cc1ccc(Oc2ccc(/C=N/O)cn2)cc1	-26%	?
O=C1c2ccccc2C(=O)N1CC1c2ccccc2CCN1C(=O)CN1CCOCC1 (configuration not stated)	-3%	-29%
Cc1cc(-c2cc(C(=O)NC3CCCC3)on2)nc(NCC2CC2)n1	-27%	-23%
O=S(=O)(NC1CCCCCCC1)c1cccs1	-3%	?
COc1ccc(C(C(=O)NC2CCCC2)N(CCN2CCOCC2)C(=O)c2ccc(OC)c(OC)c2)cc1 (configuration not stated)	-1%	-11%
Cc1sc(NC(=O)c2ccccc2)c(C(=O)NC(C)C)c1C	-1%	-10%
Cc1ccc(C)c2nc(Cl)c(C#N)cc12	3%	2%
Cc1cc(C)n(-c2cc(O)c(-n3nc(C)cc3C)cc2O)n1	-12%	?
COc1cc(S(=O)(=O)N2CCCCCC2)ccc1-n1cnnn1	2%	-1%
O=C(NN1C(=O)c2ccccc2NC1c1ccccc1OCc1ccccc1)c1ccncc1 (configuration not stated)	-3%	-23%
Cc1[nH]c(=O)[nH]c(=O)c1CSc1nnc(CCCCCNC(=O)OC(C)(C)C)o1	-26%	?
COCCNc1nc(C(C)(C)C)nc2c1nnn2Cc1ccccc1Cl	-8%	?
O=C(Cc1ccccc1)Nc1nnc(SCC(=O)NC2CCCC2)s1	7%	1%
COc1ccc(C(=O)Nc2ccc(NC(=O)C3CC3)cn2)cc1	2%	-20%
O=c1ccnc(S/C=C/c2ccccc2)[nH]1	-10%	-20%
O=C(C1CC1)N1CCCN(C(=O)C2CC2)CC1	4%	-5%
CCCCOC(=O)CCn1[nH]c(=O)c2ccccc2c1=O	1%	-16%
S=c1[nH]nc(-c2c[nH]c3ccccc23)o1	27%	-12%
CCN(CC)CCCNC(=O)N[C@@H](Cc1ccccc1)C(=O)O	10%	10%
Cc1ccsc1-c1nc(CN2CCN(C)C(=O)[C@@H]2C)c(C)o1	-7%	-2%
CC1CC(C)CN(C(=O)c2cc3c(=O)n4ccccc4nc3s2)C1 (configuration not stated)	11%	?
O=C(Nc1nc2ccsc2c(=O)s1)C1CCC1	14%	?
Cc1cccc(NC(=O)C(=O)NCC2CCCO2)c1 (configuration not stated)	21%	9%

Overlap with the part before: 5 entries, followed by the next part.
SMILES	DT40 TDP1 CPT	TDP1 cell noCPT
CCN(CC)CCCNC(=O)N[C@@H](Cc1ccccc1)C(=O)O	10%	10%
Cc1ccsc1-c1nc(CN2CCN(C)C(=O)[C@@H]2C)c(C)o1	-7%	-2%
CC1CC(C)CN(C(=O)c2cc3c(=O)n4ccccc4nc3s2)C1 (configuration not stated)	11%	?
O=C(Nc1nc2ccsc2c(=O)s1)C1CCC1	14%	?
Cc1cccc(NC(=O)C(=O)NCC2CCCO2)c1 (configuration not stated)	21%	9%
CCCC(CCC)C(=O)NNc1cc(=O)c2c(=O)n(C)c(=O)n(C)c2[nH]1	?	-7%
COc1ccc(-c2cn3cccnc3n2)cc1NC(=O)C1CCCC1	-16%	-3%
O=C(Nc1ccc(N2CCOCC2)cc1)C1(S(=O)(=O)c2ccccc2)CC1	-8%	-10%
CCC(Oc1ccccc1OC)C(=O)Nc1ccc2c(c1)n(C)c(=O)n2C (configuration not stated)	-2%	-3%
CCOC(=O)COc1ccc(S(=O)(=O)Nc2ccc3c(c2)OCO3)cc1	-5%	-26%
C=CCNC(=O)c1ccc(Cl)cc1Cl	0%	-12%
O=C(N1CCOCC1)N1CCN(S(=O)(=O)c2ccc(Cl)cc2)C1	-5%	1%
O=C(CN1CCN(S(=O)(=O)c2ccc(Cl)cc2)CC1)Nc1ccc(N2CCOCC2)cc1	3%	-13%
Cn1nnnc1SCC(=O)Nc1nn(-c2ccccc2)nc1C(N)=O	8%	10%
COc1cccc(Nc2nc(-c3cccc(N4C(=O)c5ccccc5C4=O)c3)cs2)c1	-17%	?
COc1ccc2c(C)cc(SCC#N)nc2c1	-2%	-7%
CCN(C(=O)CSc1nnnn1-c1ccccc1)C1CCS(=O)(=O)C1 (configuration not stated)	19%	-10%
CC(C)(C)NC(=O)Cn1cnc([N+](=O)[O-])n1	-3%	-8%
O=C(CSc1nc2ccccc2o1)NCc1n[nH]c(=O)c2ccccc12	-17%	1%
Cc1cccc(OCCC(=O)OC(C)C(=O)Nc2ccc(Cl)cn2)c1 (configuration not stated)	1%	10%
O=C(O)CC(c1ccccc1)n1cccc1 (configuration not stated)	0%	7%
N#CCC(=O)N/N=C/c1ccc(OC2CSC2)cc1	-13%	4%
Cc1ccc(C(=O)COC(=O)COc2ccccc2O)cc1C	6%	-4%
CCOc1ccc(COC(=O)C2CC(=O)N(CCc3ccccc3)C2)cc1OC (configuration not stated)	0%	-17%
O=C(OCCN1C(=O)c2ccccc2C1=O)c1ccco1	5%	4%
CCOC(=O)N1CCc2c(sc(NC(=O)CN3CCN(C)CC3)c2C(=O)Nc2ccccc2)C1	10%	-17%
CCOc1cccc(C2/C(=C(/O)c3ccc4c(c3)CC(C)O4)C(=O)C(=O)N2CCN2CCOCC2)c1 (configuration not stated)	4%	-13%
CC(NS(=O)(=O)c1cccc(C(=O)O)c1)C12CC3CC(CC(C3)C1)C2 (configuration not stated)	?	-6%
CCOC(=O)CSc1nnc(-c2c[nH]c3ccccc23)n1CC	3%	-22%
Cc1cc(C)n2nc(C(=O)OCC(=O)Nc3ccc4c(c3)OCO4)nc2n1	-4%	1%
CSc1nnc(C)c(=O)n1COC(=O)c1ccc([N+](=O)[O-])cc1	0%	-8%

Compound profiles, as listed above:
Profile of `N#CCC(=O)N/N=C/c1ccc(OC2CSC2)cc1` : DT40 TDP1 CPT = -13%; TDP1 cell noCPT = 4%
Profile of `Cc1cc(C)n2nc(C(=O)OCC(=O)Nc3ccc4c(c3)OCO4)nc2n1` : DT40 TDP1 CPT = -4%; TDP1 cell noCPT = 1%
Profile of `O=C(O)CC(c1ccccc1)n1cccc1` (configuration not stated) : DT40 TDP1 CPT = 0%; TDP1 cell noCPT = 7%
